# Bioassay records (PubChem)
# CDC25B CDK2 inh: primary biochemical HTRF screen for blockers of M-phase inducer phosphatase 2 binding to CDK2/cyclin A. AID 1259370, 2018. HTRF CDC25B-CDK2/CyclinA binding, anti-His/anti-Flag; hits give high values. P30305+P24941. z-score (no concentration beside the values). 94,000 tested, 0.72% active;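 also: score is relative to mean and SD of negative controls; strong numbers were not always called active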
# TAR Tat displ: TAR RNA-Tat peptide displacers, HIV-1, primary screen, biochemical, FRET, FAM/TAMRA-labeled Tat. z-score (test concentration not listed). AID 1259389, 2018. 100,000 tested, 0.6% active. HIV-1 TAR RNA, Tat peptide displacement FRET; hits give high values;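 also: score is relative to mean and SD of negative controls; some compounds called inactive have numbers as strong as hits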
# Starred values were filed as active, the others as inactive; / = no result given; & = joins results of further samples.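 The calls were made as follows: active = z-score from 3 up in half or more of its runs; inactive = the rest.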
structure	CDC25B CDK2 inh	TAR Tat displ
O=C(CCc1nnc2ccc(NCc3ccc4c(c3)OCO4)nn12)NCc1ccc(F)cc1	/	0.54
O=C1CCCc2cc(S(=O)(=O)N(Cc3ccco3)CC3CCCO3)ccc2N1 (configuration not stated)	/	-2.2
S=C(Nc1ccc2[nH]ccc2c1)NC1CCCC1	-0.87	/
CCOc1ccc(-c2nc3c(s2)CN(S(=O)(=O)c2cccc4nsnc24)CC3)cc1	/	0.4
CN1CCC(N(Cc2ccco2)C(=O)Cn2c(=O)oc3ccccc32)CC1	/	1.1
CC12c3ccccc3C(c3ccccc31)C1C(=O)NN(c3ccccc3)C(=O)C12 (configuration not stated)	-1.1	0.33
Cc1cc(C(=O)Nc2cc(C)on2)on1	-0.56	0.1
c1ccc(-c2cc(N3CCCCC3)c3ccccc3n2)nc1	-0.15	/
CCCC(=O)Nc1nnc(SCc2nc3cc(C)c(C)cc3[nH]c2=O)s1	/	-1.5
O=C(Nc1ccccc1Br)c1cnc2sc(N3CCOCC3)nn2c1=O	/	0.7
CC(C)c1c(O)nc(SCc2ccc(F)cc2)[nH]c1=O	0.03	1.9
CC(=O)C1=C(C)NC2(O)c3ccccc3C(=O)C12O (configuration not stated)	0.2	/
O=S(=O)(c1ccc2ccccc2c1)N1CCc2ccccc2C1	2	0.68
CCS(=O)(=O)N1CCN(c2cc(-c3ccccc3)ncn2)CC1	/	0.19
COc1ccccc1NC(=O)CSc1nnc2ccc3ccccc3n12	-0.26	-0.23
COc1ccc(CCNC(=O)c2cccs2)cc1OC	-1	/
CCOC(=O)c1cc2c(s1)-c1ccccc1S(=O)(=O)C2	-0.73	0.89
COc1ccc(N(C)C(=O)c2noc3c2CSc2ccccc2-3)c(OC)c1	-0.57	1.8
Cc1[nH]nc(CSSCc2n[nH]c(C)c2C(=O)NN)c1C(=O)NN	-2.6	/
O=C(CSc1nnc(-c2ccc(O)cc2)o1)c1ccc2c(c1)OCCO2	-2.6	1.6
CCc1nc(-c2csc(S(=O)(=O)N3CCCC3)c2)no1	/	0.83
CCCn1c(CN2CCN(c3ccc(F)cc3)CC2)nc2c1c(=O)n(C)c(=O)n2C	-1.2	0.1
CCN(CC)C(=O)CSc1nc2nc(C)cc(C)c2c(=O)[nH]1	0.19	/
Cc1cc2nnc(SCC(N)=O)n2c2ccccc12	-1.3	/
O=C(Cn1cnc(S(=O)(=O)N2CCc3ccccc32)c1)Nc1nccs1	/	-0.23
O=C1CC(c2cccc(F)c2F)c2c(nc(SCc3ccc(F)cc3)[nH]c2=O)N1 (configuration not stated)	-1	2.3
Cc1ccn2c(=O)c(NC(=O)c3ccccc3C)cnc2c1	0.12	-0.43
N#Cc1cc2c(nc1SC1CC(=O)N(c3ccccc3)C1=O)CCCCC2 (configuration not stated)	0.39	-0.92
CCOC(=O)N1CCC(N2CCN(S(C)(=O)=O)CC2)CC1	0.54	-0.19
COc1ccc(C2CC(=O)c3cnn(-c4nc(C)cc(C)n4)c3C2)cc1 (configuration not stated)	-0.92	-2.2
CN(C(=O)CSc1nnc(-c2ccncc2)o1)C1CCCCC1	-1.8	1.9
O=C(NCC1CCCO1)c1c(O)nc2ccccn2c1=O (configuration not stated)	-0.7	0.55
Cc1cc(C)cc(NC(=O)c2cn3c4c(ccc(Cl)c4c2=O)OCC3)c1	/	-1.6
CN(CCCNC(=O)Cn1cc2c(n1)CCCC2)C1CCCCC1	-1.2	0.66
Cc1cc(Nc2ccc(C)c(F)c2)n2ncnc2n1	-1.5	/
COc1cc(C2CC(=O)N3CN(c4ccc(C)cc4)CSC3=C2C#N)cc(Br)c1O (configuration not stated)	1.7	-0.6
Cn1c(=O)n(C)c2cc(N3CCCC3)c(NC(=O)NC3CCCCC3)cc21	-0.89	0.59
O=C(NCCO)C(=O)NCc1ccco1	1.4	1.7
O=c1[nH]c(SCCOc2ccccc2F)nc2ccccc12	2&-0.56	1.1
CCOC(=O)c1c(O)c(O)c(C(=O)OCC)n1-c1ccc(OC)cc1	-1.9	/
Cc1oc(S(=O)(=O)N2CCCC2)cc1C(=O)NCCN1CCNC1=O	-0.64	/
Cc1nn(-c2ccc3nnc(C)n3n2)c2c1C(c1ccc(OCCc3ccccc3)cc1)CC(=O)N2 (configuration not stated)	/	-1.4
CCNc1nc(-c2ccc(C)cc2)cs1	-0.49	-1.1
CCOC(=O)C(=CNc1cc(C(F)(F)F)ccc1N1CCC(C(=O)OCC)CC1)C(=O)OCC	-1.6	/
Cn1cc(CCC(=O)NCCCN2CCC(N3CCCCC3)CC2)c2ccccc21	/	1.4
S=C1NCN(Cc2ccco2)CN1c1cccc(Cl)c1	-0.5	/
CC(C)c1onc(C(=O)N2CCCCC2C)c1[N+](=O)[O-] (configuration not stated)	-0.6	-1.4
CCOc1ccc(Nc2nc(Nc3ccc(OC)cc3)nc(N)c2[N+](=O)[O-])cc1	/	-0.01
Cc1cc(NC(=O)c2cc3ccccc3c(=O)s2)no1	-2.3	-0.56
CCOC(=O)c1oc2ccc(S(=O)(=O)n3nc(-c4cc(OC)cc(OC)c4)cc3N)cc2c1C	-0.12	-0.18
O=S(=O)(NCCCc1ccccc1)c1cccc2nsnc12	-0.52	1.5
CN(C)CCNc1cc(N2CCCC2)c2noc3c2c1C(=O)c1ccccc1-3	-0.79	1
CC1(C(=O)NC2CCCCC2)Cn2c(ccc2-c2ccco2)C(=O)N1C1CCCC1 (configuration not stated)	/	-1
Cc1cc(C(=O)N2CCCc3ccccc32)no1	0.14	/
CC1(C)CC(=O)CC(=NCC(=O)O)C1	-0.37	/
CCCCN1C(SCC(=O)NCc2ccco2)=NS(=O)(=O)c2ccccc21	/	1.4
CCOC(=O)c1c(N)sc(C)c1C	-0.25	0.93
C=CCOc1ccc(/C(O)=C2/C(=O)C(=O)N(CC3CCCO3)C23C(=O)N(CC)c2ccccc23)cc1 (configuration not stated)	0.05	-0.66
O=C1C(=O)N(CCO)C(c2ccc(F)cc2)/C1=C(/O)c1ccccc1 (configuration not stated)	-1.3	-0.05
Cc1[nH]nc2c1C(c1ccc(C(C)C)cc1)C(C#N)=C(N)O2 (configuration not stated)	-2.1	-0.57

# Among those listed so far, these contain a cyano group:
structure	CDC25B CDK2 inh	TAR Tat displ
N#Cc1cc2c(nc1SC1CC(=O)N(c3ccccc3)C1=O)CCCCC2 (configuration not stated)	0.39	-0.92
COc1cc(C2CC(=O)N3CN(c4ccc(C)cc4)CSC3=C2C#N)cc(Br)c1O (configuration not stated)	1.7	-0.6
Cc1[nH]nc2c1C(c1ccc(C(C)C)cc1)C(C#N)=C(N)O2 (configuration not stated)	-2.1	-0.57

# (further entries)
structure	CDC25B CDK2 inh	TAR Tat displ
COc1ccc(C2(CNC(=O)c3ccc(OC)c([N+](=O)[O-])c3)CCCCC2)cc1OC	-0.13	/
O=C(Cn1cnc2c(oc3ccccc32)c1=O)Nc1ccc(Br)cc1F	/	0.44
CCCCCCCCNC(C)C(O)c1ccc(SC(C)C)cc1 (configuration not stated)	/	1.2
O=C1CN(C(=O)CCCc2ccccc2)C(c2ccccc2)c2cc(Br)ccc2N1 (configuration not stated)	-2	2.6
CCOC(=O)c1c(NC(=O)Oc2ccccc2)sc2c1CCCC2	-0.81	1.9
Cn1c(=O)n(-c2ccccc2)c(=O)c2cc3c(nc21)CC(C)(C)OC3	-1.6	0.37
CCC(C)NC(=O)C1CCCN(S(=O)(=O)c2ccc3c(c2)oc(=O)n3C)C1 (configuration not stated)	-0.13	1.1
O=C(NC1CCCCC1)C1CCCN(S(=O)(=O)N2CCOCC2)C1 (configuration not stated)	/	1.7
Nc1nc(NS(=O)(=O)c2ccccc2)ns1	0.18	/
O=C1c2oc3ccccc3c(=O)c2C(c2cccc(O)c2)N1c1nncs1 (configuration not stated)	0.05	-0.38
N#Cc1cnn(-c2ccccc2)c1N	-0.91	/
CCN1CCc2c(sc(-n3cccc3)c2CNC(=O)Nc2cc(OC)ccc2OC)C1	/	-7.6
CC1CCCCC1NC(=O)CN(C)S(=O)(=O)c1ccc2[nH]c(=O)ccc2c1 (configuration not stated)	/	-0.09
O=S(=O)(NCCn1c(CCc2ccccc2)nc2ccccc21)c1cccc2nsnc12	/	0.43
Cn1nc(C(C)(C)C)cc1C(=O)NN1CCOCC1	-2.4	/
O=C1CCc2cc(S(=O)(=O)NC(Cc3ccccc3)C(=O)NCC3CCCO3)ccc2N1 (configuration not stated)	0.41	/
Cc1ccc(NC(=O)CSCc2cc(=O)n3nc(C4CC4)sc3n2)c(C)c1	/	0.33
O=S1(=O)N=C(SCc2cccc(F)c2)Nc2ccccc21	/	1.5
CCN1CCN(C(c2cccs2)C(C)NC(=O)C(C)C)CC1 (configuration not stated)	-0.93	/
CCc1cc2c3c([nH]c2cc1S(=O)(=O)NCc1ccccn1)CCCC3=O	/	-0.01
CCOc1ccc(-n2c(SCc3nc(-c4ccccc4C)no3)nnc2-c2ccncc2)cc1	-1.6	2.9
CN(C)S(=O)(=O)N(CC(=O)NCCSC1CCCCC1)c1ccccc1	0.05	-0.29
CC1=C(C(=O)OCCc2ccccc2)C(c2ccncc2)C2=C(CC(c3ccccc3)CC2=O)N1 (configuration not stated)	-0.53	0.41
Cc1ccc(S(=O)(=O)N/N=C/c2coc3ccc(Cl)cc3c2=O)cc1	0.37	/
CN1C(=O)C(C)(C)c2cc(S(=O)(=O)N(C)CC(=O)NC3CCCc4ccccc43)ccc21 (configuration not stated)	/	-0.12
CCN(Cc1nc(-c2cccc(C)c2)no1)S(=O)(=O)c1ccc(Br)cc1	-1.3	1.9
O=C(CNC(=O)c1cnccc1C(F)(F)F)c1cccc(Cl)c1	-1.2	/
NCCCCCCNC(=O)c1c(O)c2cccc3c2n(c1=O)CC3	-1.4	0.47
CC1CCN(c2nn3c(=O)c(C(=O)NCCN4CCOCC4)cnc3s2)CC1	/	-0.57
CCc1cc2c(N3CCC(C(=O)NCc4cccs4)CC3)ncnc2s1	/	-0.17

# Single entries from the list.
# CN1C(=O)C(C)(C)c2cc(S(=O)(=O)N(C)CC(=O)NC3CCCc4ccccc43)ccc21 (configuration not stated) in TAR Tat displ shows -0.12
# Cn1cc(CCC(=O)NCCCN2CCC(N3CCCCC3)CC2)c2ccccc21 in TAR Tat displ shows 1.4
# O=C(CSc1nnc(-c2ccc(O)cc2)o1)c1ccc2c(c1)OCCO2 in CDC25B CDK2 inh shows -2.6
# CCN1CCc2c(sc(-n3cccc3)c2CNC(=O)Nc2cc(OC)ccc2OC)C1 in TAR Tat displ shows -7.6

# Carrying on.
structure	CDC25B CDK2 inh	TAR Tat displ
O=C(c1cnc(N2CCN(c3ncccn3)CC2)c2ccccc12)N1CCN(c2ccccn2)CC1	-0.24	0.53
O=C1Nc2ccccc2Oc2ccc(S(=O)(=O)N3CCc4ccccc4C3)cc21	/	1.4
Cc1ccccc1CN1C(=O)C(O)(c2c(C)[nH]c3ccccc23)c2ccccc21 (configuration not stated)	-0.27	-1.2
Cn1c(Cn2c(=O)sc3ccccc32)nnc1SCC(=O)NCc1ccc2c(c1)OCO2	-1.3	/
Cc1nn(Cc2c(F)cccc2Cl)c(=O)c2noc(C)c12	/	-1.2
Cc1nn2c(nc1=O)SCC(c1ccccc1)=N2	-1.7	/
CC(C)(C)NC(=O)CSc1nc(-c2ccccc2)nc2cc(=O)[nH]n12	/	1.4
Cc1ccccc1-c1coc(-c2ccc(NS(=O)(=O)c3ccc(Br)cc3)cc2)n1	/	1.8
CCc1cc2c3c([nH]c2cc1S(=O)(=O)Nc1ccc2c(c1)OCO2)CC(C)(C)CC3=O	/	-0.28
Cc1ccc(CSc2ncc(-c3ccccc3)n2C)cc1	/	-0.63
CCCCCCCOC(=O)C1=C(C)Nc2ncnn2C1c1ccc(C)cc1 (configuration not stated)	-3.1	-0.58
NC(=O)c1cc(S(=O)(=O)NC2CCCCC2)cs1	/	1.7
COc1cccc(N(Cc2ccc(C)cc2)C2=NC3CS(=O)(=O)CC3S2)c1 (configuration not stated)	-1.6	0.16
O=C1CS/C(=C/C(=O)c2cccs2)N1	-0.81	/
COc1cccc(-c2noc3ncnc(N4CCOCC4)c23)c1	/	0.21

# 2 successive entries already listed, quoted:
structure	CDC25B CDK2 inh	TAR Tat displ
O=C(c1cnc(N2CCN(c3ncccn3)CC2)c2ccccc12)N1CCN(c2ccccn2)CC1	-0.24	0.53
O=C1Nc2ccccc2Oc2ccc(S(=O)(=O)N3CCc4ccccc4C3)cc21	/	1.4

# Following part.
structure	CDC25B CDK2 inh	TAR Tat displ
CCc1ccc(-n2c(C)nnc2SCc2nc(-c3ccc(OC)cc3)no2)cc1	0.42	1.4
Cc1cc(C)c(NC(=O)CCN2CCCCCC2)c(C)c1	-1	/
Cn1c(=O)c2c(O)cc(=O)n(C)c2n(C)c1=O	-1.4	/
N=C1C(c2nc3ccccc3[nH]2)=C(O)CN1Cc1ccccn1	-2.9	2.4
O=C(NC1CC1)c1ccc2c(=O)nc3c(-c4ccc(Cl)cc4)n[nH]n3c2c1	/	-8.4
CCCCNC(=O)NC1(C(F)(F)F)Oc2ccccc2O1	0.08	/
CC(=O)C1=C(O)C(=O)N(CC2CCCO2)C1c1ccc(C)cc1 (configuration not stated)	-1.6	/
Cc1ccc(-n2ncc(-c3nn[nH]n3)c2N)cc1	-1.6	/
OC(c1ccccc1)c1ccc2ccccc2c1 (configuration not stated)	1.7	/
Cc1ccccc1-c1nnc(-c2ccccc2C)o1	0.15	-0.05
CN(Cc1ccccc1)C(c1ccc(F)cc1)c1c(O)[nH]c(=O)[nH]c1=O (configuration not stated)	-2.3	/

# Exported with two lines to a compound: three of the compounds above
# Screens in order: CDC25B CDK2 inh, TAR Tat displ
CCc1ccc(-n2c(C)nnc2SCc2nc(-c3ccc(OC)cc3)no2)cc1
  0.42, 1.4
N=C1C(c2nc3ccccc3[nH]2)=C(O)CN1Cc1ccccn1
  -2.9, 2.4
Cc1ccccc1-c1nnc(-c2ccccc2C)o1
  0.15, -0.05
